Screens from PubChem.
Mtb growth – Mycobacterium tuberculosis H37Rv growth inhibition, cell based, confirmatory dose response (AID 1949); inhibition, % at 10 µg/mL, or IC50 in µg/mL where a hit was titrated; most inactive calls were filed without a number and no value below 0 was filed; actives 1.6% (n = 100,000);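 active means confirmed in a dose series; inconclusive means about 50% or more but not retested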;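 further: bacteria grown 7 days with compound before Alamar blue readout; 0% = untreated bacteria and 100% = reference antibiotic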
* = called active by the depositor; i = inactive; ? = inconclusive.

SMILES	Mtb growth
COc1ccccc1OC(C)C(=O)c1cccc(Cl)c1 (stereo not given)	i
Cc1ccc(NC(=O)CCN2CCN(c3ccc(F)cc3)CC2)cc1	i
CCc1ccc(NC(=O)CSc2nc3ccccc3c(=O)[nH]2)cc1	i
COC(=O)c1[nH]c2c(c1C)C(=O)CC(c1ccc(Cl)cc1)C2 (stereo not given)	1%
O=C(Nc1cccc(Cn2cccn2)c1)c1csc2ccccc12	i
Cc1occc1C(=O)NC1CCN(C)CC1	i
O=C(c1cccc(Br)c1)N1CCN(c2ccc([N+](=O)[O-])c(NCC3CCCO3)c2)CC1 (stereo not given)	i
Fc1ccc(-c2nn(-c3ccccc3)cc2CNCc2ccccc2)cc1	5.9µg/mL*
CCOc1ccc(NS(=O)(=O)c2ccccc2C#N)cc1	i
O=C(O)C1CCCCC1C(=O)Nc1nc(-c2ccc(F)cc2)cs1 (stereo not given)	i
COc1cc2ccccc2cc1C(=O)NC(=S)Nc1ccc(C(=O)O)c(Cl)c1	i
S=C(NCc1ccc(Cl)cc1)Nc1ccc(OCc2ccccc2)cc1	i
CC(=O)NC(c1ccc(Cl)cc1Cl)c1ccc2cccnc2c1O (stereo not given)	2%
Cc1ccc(C(=O)N2CC(C)N(C(=O)c3ccc(C)c(C)c3)CC2C)cc1C (stereo not given)	i
CCc1ccc(NC(=O)CCc2ccccc2)cc1	27%
CC1CCc2cc(F)ccc2N1C(=O)c1ccc2c(c1)OCO2 (stereo not given)	i
COc1ccc(NC(=O)NCCN2CCc3ccccc3C2)cc1	i
Cc1ccc([N+](=O)[O-])cc1NC(=O)CCc1ccc(S(=O)(=O)NC2CCCCC2)cc1	?
NC(=O)C1(N2CCCCC2)CCN(C(=O)c2ccc(C#CC3(O)CCCCC3)cc2)CC1	12%
O=C(Nc1cccc(C(=O)O)c1)/C(=C\c1ccc([N+](=O)[O-])cc1)NC(=O)c1ccco1	i
COc1ccccc1NC(=S)N1CCN(c2ncccn2)CC1	i
COc1ccc(NS(=O)(=O)c2c(C)cc(C)cc2C)cc1OC	4%
O=C(CSc1ncnc2sc(-c3ccccc3)cc12)NC1CCCCC1	4%
CC(CCc1ccccc1)N1C(=S)NC2C=C(Cl)C=CC21 (stereo not given)	11%
O=[N+]([O-])c1cc(-n2ncnc2-c2ccccc2C(F)(F)F)ccc1Cl	i

Brought forward from above: two compounds, then new ones.
SMILES	Mtb growth
CC(CCc1ccccc1)N1C(=S)NC2C=C(Cl)C=CC21 (stereo not given)	11%
O=[N+]([O-])c1cc(-n2ncnc2-c2ccccc2C(F)(F)F)ccc1Cl	i
CCc1ccc(N(CC(=O)NCc2ccccc2C)S(C)(=O)=O)cc1	i
Cc1nc2ccc(NC(=O)c3ccc(C#N)cc3)cc2s1	i
Cc1cccc2sc(NC(=O)c3ccc(C(C)(C)C)cc3)nc12	1.4µg/mL*
O=C1CCCC2=C1C(c1cccs1)N(C(=O)c1ccccc1)c1ccccc1N2 (stereo not given)	i
CCC(C)c1ccc(NC(=O)CN2C(=O)c3ccccc3C2=O)cc1 (stereo not given)	i
O=C(Nc1cccc(OC2=NS(=O)(=O)c3ccccc32)c1)c1ccccc1	i
O=C(CSc1ccccc1)Nc1cccc(NC(=O)c2ccco2)c1	0%
CC(C)CC(NC(=O)c1ccc(C#CC(C)(C)O)s1)C(=O)O (stereo not given)	i
CC1CCCC(C)N1C(=O)c1ccc(CNS(=O)(=O)c2cccc(C(F)(F)F)c2)cc1 (stereo not given)	i
Cc1cc(C)c(-n2nnnc2SCc2ccccc2)c(C)c1	12%
Cc1cccc(C(=O)Nc2nnc(C3CCCCC3)s2)c1[N+](=O)[O-]	i
CCOc1ccc(CC(=O)NCc2ccccc2Cl)cc1OCC	i
Cc1cc(C(=O)NC(C)C(C)(C)C)cs1 (stereo not given)	i
O=C(O)CC(C(=O)NC1CCCCC1)C1CCCO1 (stereo not given)	i
Cc1cc(OCCCC(=O)N2CCOCC2)cc(C)c1Cl	3%
COCCSc1ccccc1C(=O)Nc1cc(C)ccn1	i
CN1CCc2nc(SCc3ccccc3Br)c(C#N)cc2C1	i
CCc1cccc(OCC(=O)Nc2nc(-c3ccc(C)cc3)c(C)s2)c1	2%
CCCc1cc(=O)n2[nH]c(-c3cc(OC)c(OC)c(OC)c3)nc2n1	i
CCCCC(CC)CNC(=O)Cc1ccccc1 (stereo not given)	i
COc1ccc(NC(=O)NCCc2ccc(F)cc2)cc1OC	2%
CCOC(=O)c1c(NC(=S)NCc2cc(C)n(C)n2)sc2c1CCCC2	16%
CCOC(=O)c1c(NC(=O)CSc2nnc(-c3ccccc3)o2)sc(C(C)=O)c1C	i
O=C(Nc1ccc(Cl)cc1F)c1ccc2c(c1)OCO2	3%
CCc1cccc(C)c1NS(=O)(=O)c1cccs1	i

An excerpt of the results above, for reference:
SMILES	Mtb growth
CC1CCCC(C)N1C(=O)c1ccc(CNS(=O)(=O)c2cccc(C(F)(F)F)c2)cc1 (stereo not given)	i
Cc1cc(C)c(-n2nnnc2SCc2ccccc2)c(C)c1	12%
Cc1cccc(C(=O)Nc2nnc(C3CCCCC3)s2)c1[N+](=O)[O-]	i
CCOc1ccc(CC(=O)NCc2ccccc2Cl)cc1OCC	i
Cc1cc(C(=O)NC(C)C(C)(C)C)cs1 (stereo not given)	i
O=C(O)CC(C(=O)NC1CCCCC1)C1CCCO1 (stereo not given)	i
Cc1cc(OCCCC(=O)N2CCOCC2)cc(C)c1Cl	3%
COCCSc1ccccc1C(=O)Nc1cc(C)ccn1	i
CN1CCc2nc(SCc3ccccc3Br)c(C#N)cc2C1	i
CCc1cccc(OCC(=O)Nc2nc(-c3ccc(C)cc3)c(C)s2)c1	2%
CCCc1cc(=O)n2[nH]c(-c3cc(OC)c(OC)c(OC)c3)nc2n1	i
CCCCC(CC)CNC(=O)Cc1ccccc1 (stereo not given)	i
COc1ccc(NC(=O)NCCc2ccc(F)cc2)cc1OC	2%
CCOC(=O)c1c(NC(=S)NCc2cc(C)n(C)n2)sc2c1CCCC2	16%
CCOC(=O)c1c(NC(=O)CSc2nnc(-c3ccccc3)o2)sc(C(C)=O)c1C	i
O=C(Nc1ccc(Cl)cc1F)c1ccc2c(c1)OCO2	3%
CCc1cccc(C)c1NS(=O)(=O)c1cccs1	i

Carrying on:
SMILES	Mtb growth
Cc1ccc(S(=O)(=O)CCC(=O)OCc2ccccc2F)cc1	7%
CC(=O)CC(=O)Nc1nc2ccccc2s1	i
CC(=O)OC1c2cc(C)ccc2NC(c2ccc(Br)cc2)C1(C)C (stereo not given)	21%
O=C(NCCc1ccccc1)C(F)(F)C(F)F	i
O=C(Nc1cc(C(F)(F)F)ccc1N1CCOCC1)c1ccc(Cl)cc1Cl	i
COc1cc(C=O)ccc1OCc1cccs1	i
Cn1c(=O)c2ncn(CC(=O)Nc3cccc(C(=O)O)c3)c2n(C)c1=O	i
O=C(COc1ccccc1)Nc1ccccc1C(=O)NCc1ccco1	2%
O=C(Nc1ccc(-c2nc3ccccc3o2)c(O)c1)c1ncn[nH]1	i
O=C(Oc1cccc(NC(=O)c2cccs2)c1)c1cccc(S(=O)(=O)N2CCCC2)c1	i
Cc1ccccc1NC(=O)CSc1nnc(-c2ccco2)c(-c2ccco2)n1	0%
O=C(Nc1ccc([N+](=O)[O-])cc1Br)c1ccncc1	i
CC(C)(C)N1C(=O)c2ccc(C(=O)Nc3ccc(O)cc3)cc2C1=O	3%
Cc1ccc(Cl)cc1NC(=O)COc1cc(C)c(Br)c(C)c1	i
CC(C)(C)OC(=O)NCCC(=O)Oc1cc2oc(=O)c3c(c2cc1Cl)CCC3	i
COc1cc(S(=O)(=O)Nc2cc(C)cc(C)c2)ccc1F	4%
CCOc1ccc(C(=O)NC(=S)Nc2ccc(NC(=S)NC(=O)CC)cc2)cc1Cl	i
O=C(Cc1ccccc1)Nc1c(C(=O)N2CCCCCC2)cnn1-c1ccccc1	i
CCOc1ccccc1N(CC(=O)NC1CCCCC1)S(=O)(=O)c1ccc(C)cc1	3%
COc1c(C)cc(Br)cc1C(=O)Nc1ccc(Cc2ccncc2)cc1	?
CCCC(=O)NC(=S)Nc1ccc(NC(=O)C(C)C)c(OC)c1	21%
COc1cccc(N2C(=O)N(c3ccc(Cl)c(Cl)c3)C3CS(=O)(=O)CC32)c1 (stereo not given)	i
CCOC(=O)N1CCN(CC(O)COc2cc(C)ccc2C)CC1 (stereo not given)	0%
CN1C(=O)c2ccc(NC(=S)NC(=O)c3ccc4c(c3)OCO4)cc2C1=O	i
Cn1cnnc1SC1CCCCC1NS(=O)(=O)c1ccc(Cl)cc1 (stereo not given)	1%
(further entries)
SMILES	Mtb growth
O=S(=O)(c1cccc2nonc12)N1CCCCCC1	i
C=CCNC(=O)COc1ccc(-c2ccc(C#N)cc2)cc1	12%
CCOc1ccccc1C(=O)N1CCN(c2cccc(C)c2C)CC1	6%
O=C(CCCN1C(=O)CCC1=O)Nc1cccc2c1CCCC2	0%
COCCN1CCn2c(nc3cc(NC(=O)c4ccco4)ccc32)C1	i
Cc1cccc(C)c1NC(=O)CC1Sc2ccccc2NC1=O (stereo not given)	i
COc1ccc(OC)c(NC(=S)N2CCN(c3ccc(O)cc3)CC2)c1	i
Fc1ccc(-n2c(-c3ccccc3F)n[nH]c2=S)cc1	i
CCn1c(SCC(=O)NCCc2ccc(OC)c(OC)c2)nc2sc3c(c2c1=O)CCC3	i
CC1CC(=O)c2cnc(N3CCc4ccccc43)nc2C1 (stereo not given)	i
CCC(=O)NC(=S)Nc1ccc(-c2nc3ccccc3s2)cc1	11%
COc1ccc(Cl)cc1NC(=O)c1c(NC(=O)C(C)(C)C)sc2c1CCCC2	4%
COc1ccc(NC(=S)N2CCN(C(=O)C3CCCO3)CC2)cc1OC (stereo not given)	i
CS(=O)(=O)N(CC(=O)Nc1ccccc1-c1ccccc1)c1cccc2ccccc12	i
CC1(C)CC(=O)C2=C(C1)Nc1ccc3ccccc3c1C2c1ccco1 (stereo not given)	35%
CCc1ccc(C2=NN(C(C)=O)C(c3cccs3)C2)cc1 (stereo not given)	25%
CC(NC(=O)Nc1cccc(C(F)(F)F)c1)c1nc2ccccc2[nH]1 (stereo not given)	i
O=c1[nH]nc(Cc2ccccn2)c2ccccc12	9%
Cc1ccccc1CNC(=O)C(=O)Nc1ccc2c(c1)OCO2	i
Cc1cc(-c2cc(C(=O)N3CCN(S(C)(=O)=O)CC3)c3cc(Cl)ccc3n2)c(C)s1	i
CCOC(=O)c1ccc(CSc2nnc(N)s2)cc1	4%
CCCn1nnc(NC(=O)c2ccc(-c3ccccc3)cc2)n1	7%
COc1cc(C(=S)N2CCCCC2)cc(Cl)c1OCc1ccccc1C#N	1%
COc1cccc(NC(=O)C(O)(c2ccccc2)c2ccccc2)c1	i
O=C(O)c1ccc(CSCc2ccccc2)o1	i
Later entries
SMILES	Mtb growth
Cc1c(Cl)cccc1N(CC(=O)Nc1cc(C(F)(F)F)ccc1Cl)S(C)(=O)=O	19%
O=C(NS(=O)(=O)c1ccc(F)cc1)c1ccccc1	2%
CCN(CC(=O)NCCC1=CCCCC1)S(=O)(=O)c1ccc(C)cc1	i
O=C1CC(c2ccco2)Sc2nc3ccccc3n21 (stereo not given)	i
Cc1ccc(Cl)cc1NC(=O)C1C2C3CCC(C3)C12 (stereo not given)	i
Cc1cc(OCC(=O)Nc2c(C)cccc2C)c2c(-c3ccccc3)cc(=O)oc2c1	i
CCOCCCNC(=O)C(=O)NCc1ccco1	i
COc1ccc(Cc2nnc(SCC(=O)Nc3ncc(C(F)(F)F)cc3Cl)n2-c2ccccc2)cc1	i
O=C(COc1ccccc1Cl)Nc1ccc(N2CCCC2)cc1	46%
COc1ccc(OC)c(S(=O)(=O)Nc2cc(Cl)ccc2Oc2ccccc2)c1	i
CCN(c1ccccc1C)S(=O)(=O)c1ccc(OC)cc1	13%
CNS(=O)(=O)c1ccc(C(C)(C)C)cc1	i
CNC(=S)NCCc1ccc(OC)cc1	i
CCCCNC(=O)Cn1c(=O)n(C)c2ccccc21	i
CS(=O)(=O)N(CC(=O)Nc1ccccc1F)c1ccccc1	i
CC(=O)OCc1cc(=O)n(C)c(=O)n1C	2%
COc1cc(C(=S)N2CCN(Cc3ccccc3)CC2)ccc1OCC(=O)Nc1cccc(Cl)c1C	6%
Cc1c(NC(=O)COc2ccc(C(C)(C)C)cc2)cccc1[N+](=O)[O-]	8%
CC(=O)c1cc2c(cc1NC(=O)CSc1ccccn1)OCO2	i
Cc1cccc(N(CC(=O)NCCCOC(C)C)S(C)(=O)=O)c1	i
Cc1ccccc1CN(c1ccc(C(=O)Nc2ccc(F)cc2)cc1)S(C)(=O)=O	i
CC(C)C(=O)Nc1cccc(C(=O)N2CCN(c3ccc(F)cc3)CC2)c1	i
Cc1cc(C)c(S(=O)(=O)Nc2ccccc2C(=O)O)cc1C	i
O=S(=O)(Nc1cc(C(F)(F)F)ccc1Cl)c1cccs1	i
Cc1ccc(-c2nc(C)sc2CC(=O)O)cc1	i
Later entries.
SMILES	Mtb growth
COC(=O)c1cc(NC(=S)N2CCN(Cc3ccccc3)CC2)cc(C(=O)OC)c1	i
CC(c1ccccc1)N1C(=O)C2C(C1=O)C1(C)C=CC2(C)O1 (stereo not given)	i
COC(=O)c1ccccc1NC(=O)CC1Sc2ccc(C(F)(F)F)cc2NC1=O (stereo not given)	i
COc1ccc(-n2c(-c3ccccc3F)n[nH]c2=S)cc1	i
Cc1ccc(Cl)cc1N1CCN(C(=O)C2CCN(C(=O)Cc3ccccc3)CC2)CC1	38%
O=C(Oc1ccc2oc3c(c2c1)CCCC3)c1ccco1	43%
Cc1occc1-c1nnc(SCC(=O)Nc2cccc(Cl)c2)n1-c1ccccc1	5%
CC(C)c1ccc(OCC(=O)Nc2ccc(O)cc2C(=O)O)cc1	i
Cc1cc(C)c(CSc2nnc(NC(=O)CCc3ccccc3)s2)c(C)c1	i
CC1(C)CC(Nc2ccc(C(F)(F)F)cc2[N+](=O)[O-])CC(C)(C)N1	i
O=S(=O)(Cc1ccccc1)Nc1ccc(F)c(Cl)c1	i
COC(=O)NC(c1ccccc1)c1ccccc1	i
CN(c1ccccc1C(=O)Nc1ccc(S(=O)(=O)N2CCCCC2)cc1)S(=O)(=O)c1ccccc1	i
CCOC(=O)c1c(NC(=O)c2ccccc2F)sc(C)c1-c1ccccc1	i

Not all compounds are listed (hit frequency here may not be typical).
